Rce1 inhib – inhibitors of yeast Ras-converting enzyme. Q03530. yeast membranes, quenched prenylated peptide cleavage fluorescence. calls only. hit rate 0.27% among 290,000. AID 2563;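 active = fall in fluorescence gain of 50% or more versus controls, with final raw signal at or below 3038400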;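 also: plate controls were neutral control wells for no effect and wells lacking membranes for full effect; tested at 10 µM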
Target sequence (Q03530 whole entry, looked up): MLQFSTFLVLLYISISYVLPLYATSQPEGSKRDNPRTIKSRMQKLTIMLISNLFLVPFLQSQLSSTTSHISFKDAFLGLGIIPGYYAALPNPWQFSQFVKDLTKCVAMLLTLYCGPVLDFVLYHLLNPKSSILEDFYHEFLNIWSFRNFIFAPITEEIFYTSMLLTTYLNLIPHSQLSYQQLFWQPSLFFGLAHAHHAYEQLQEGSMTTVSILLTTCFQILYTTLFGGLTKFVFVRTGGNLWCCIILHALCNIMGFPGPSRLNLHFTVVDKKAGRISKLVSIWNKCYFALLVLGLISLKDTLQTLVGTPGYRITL
MT1-MMP act inh – blocks activation of human MT1-MMP; hit rate 0.061% among 360,000; GFP/RFP ratio change, % at 20 µM; HT1080 RFP-PRO-GFP cells, GFP/RFP ratio fluorescence, overnight; percent of plate control window, DMSO zero; AID 651647;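 active = GFP/RFP ratio change of at least 30% with cell ATP level not reduced by more than half and red fluorescence within 50% of control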; also: strong numbers were not always called active
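Assay system – RFP-PRO-GFP reporter HT1080 cells · Compound dosing – single dose of 20 µM compound, 1% DMSO final · Incubation – overnight compound exposure at 37 °C · Measure – GFP/RFP fluorescence ratio · Benchmarks – DMSO wells and RFP-L50D-GFP cells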
Env fusion inh – inhibitors of HIV Env-mediated cell fusion. HeLa-JRFL Env/CEM21 cell fusion, luciferase. inhibition, % at 12.3 µM. hit rate 1.1% among 360,000;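 active = mean replicate inhibition score of at least 50 and every replicate individually at or above 50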;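 also: 0% = plate neutral controls and 100% = maraviroc near 300 nM; one replicate is shown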
Yeast UUG start – modulators of start codon recognition fidelity in yeast; AID 602363; S. cerevisiae UUG-firefly luciferase reporter, luminescence/redox ratio; hit rate 0.13% among 350,000; activity score, % at 18.7 µM;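 active = replicate mean at a twofold rise or more, about +100% in these data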;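 also: firefly luciferase made from a UUG start codon reports start codon fidelity; reporter light over untreated wells divided by growth signal over untreated wells; some hits fall short of that in this replicate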
PABP FP inh – PABP-poly(A) binding inhibition. P11940. PABP-poly(A) RNA binding, fluorescence polarization. inhibition, % at 35 µM. hit rate 1% among 290,000. AID 2014;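 active = 50% or more with normal probe brightness, or confirmed in later tests; about a fifth of its hits are not listed in these tables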;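 also: calls also rest on retests at 20 µM and on dose response follow-up; controls were probe without protein and protein plus probe with vehicle; some compounds called inactive have numbers as strong as hits; many hits fall short of the cut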
Target sequence (P11940 whole entry, looked up): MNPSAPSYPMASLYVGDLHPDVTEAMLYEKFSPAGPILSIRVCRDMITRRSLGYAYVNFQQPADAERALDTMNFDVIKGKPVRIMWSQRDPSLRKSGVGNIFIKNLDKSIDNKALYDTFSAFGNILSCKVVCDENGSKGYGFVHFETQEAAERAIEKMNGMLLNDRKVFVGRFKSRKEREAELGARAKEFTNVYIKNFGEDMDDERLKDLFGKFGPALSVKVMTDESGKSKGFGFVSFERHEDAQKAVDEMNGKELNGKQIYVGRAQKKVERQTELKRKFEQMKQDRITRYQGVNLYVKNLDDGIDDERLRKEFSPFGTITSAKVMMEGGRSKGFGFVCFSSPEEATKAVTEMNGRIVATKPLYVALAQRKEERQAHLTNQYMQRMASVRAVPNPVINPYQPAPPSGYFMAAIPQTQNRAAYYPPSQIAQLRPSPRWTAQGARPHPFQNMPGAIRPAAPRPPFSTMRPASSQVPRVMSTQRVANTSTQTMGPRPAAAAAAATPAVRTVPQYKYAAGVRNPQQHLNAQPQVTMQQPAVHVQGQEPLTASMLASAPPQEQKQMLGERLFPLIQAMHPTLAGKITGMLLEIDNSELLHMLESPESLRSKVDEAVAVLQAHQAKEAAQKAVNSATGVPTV
CSC inhib – blocks cancer stem cells; cancer stem cell-like cells viability, luminescence; inhibition, % at 7.5 µM; hit rate 1.1% among 300,000; AID 2717;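 active = mean at 75% or more and at least half the replicates too; tested in HMLE shEcad cells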;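 also: 0% = median of negative and 100% = median of positive control wells; the first replicate is given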
eIF4H inh – inhibitors of RNA binding by human eIF4H. Q15056. eIF4H fluorescence polarization binding assay. inhibition, % at 35 µM. hit rate 0.94% among 290,000. AID 2012;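 active = 50% or more with normal probe brightness, or confirmed in later tests; about a fifth of its hits are not listed in these tables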;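 also: calls also rest on retests at 20 µM and on dose response follow-up; 0% = protein and probe with vehicle and 100% = probe without protein; strong numbers were not always called active; many hits fall short of the cut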
eIF4H inh retest – second read-out of eIF4H inh, no call of its own (marks repeat the call); inhibition, %; compound at 20 µM; confirmation average;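 mean of two retest wells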
PABP FP inh retest – recorded beside PABP FP inh, whose call it bears; inhibition, %; compound at 20 µM; confirmation repeats;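 mean of two retest wells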
MT1-MMP act inh RFP – recorded beside MT1-MMP act inh, whose call it bears; RFP signal change, %; measured here: RFP expression control read;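 0 = vehicle wells; hits needed this value within 50% of zero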
* = called active by the depositor; i = inactive; x = not tested or not shown; & = joins results of further samples.

SMILES | Rce1 inhib | MT1-MMP act inh | MT1-MMP act inh RFP | Env fusion inh | Yeast UUG start | PABP FP inh | CSC inhib | eIF4H inh | others
O=C(Nc1ccc(Oc2cccc3ccccc23)cc1)c1ccco1 | i | -3.3 | -16.0 | x | -12.7 | 0.4 | -13.2 | -7.5
O=C(NCC1CCCN1S(=O)(=O)c1cccs1)C(=O)Nc1cccc(F)c1 (configuration not stated) | i | -0.8 | -0.3 | -8.7 | -15.9 | x | -3.7 | x
COc1ccc(Nc2ccc(N3C(=O)CCCC3=O)cc2[N+](=O)[O-])c(OC)c1 | i | 8.1 | 3.8 | -16.2 | -13.2 | 0.8 | 8.2 | -7.2
Cc1ccccc1C(=O)N1CCc2cc(-c3csc(NC(=O)CN4CCCC4)n3)ccc21 | i | 0.8 | -13.8 | -21.1 | 1.8 | -12.5 | 9.6 | -5.1
Nc1cc(Nc2ccccc2)c2nonc2c1[N+](=O)[O-] | i | 9.0 | 3.2 | 5.8 | -11.8 | 1.7 | -2.4 | -6.4
O=C(O)CC1S/C(=N\N=C2\C(=O)Nc3ccccc32)N(c2ccc(O)cc2)C1=O (configuration not stated) | i | 7.9 | 9.8 | -0.8 | -25.7 | 4.4 | -0.7 | 8.9
CCc1cc(=O)oc2cc(OCC=C(C)C)ccc12 | i | 2.3 | 4.2 | x | 1.3 | -13.1 | -11.0 | -0.2
Cc1nn(C)cc1NC(=O)Cn1nc(C(F)(F)F)cc1C1CC1 | i | 4.3 | 3.2 | 11.1 | x | 0.7 | x | 9.7
COC(=O)c1c(N2C(=O)[C@H]3[C@@H](C2=O)[C@]2(C(=O)Nc4c(C)cc(C)cc42)N2CCC[C@@H]32)sc(C)c1C | i | -18.0 | -0.7 | 46.6 | -4.6 | 2.3 | 17.7 | 58.3 | eIF4H inh retest=-15.1;PABP FP inh retest=3.2
COc1cccc(Nc2nc(Nc3ccc(Cl)c(C(=O)O)c3)nc(C)c2[N+](=O)[O-])c1 | x | 4.6 | 1.4 | x | -17.7 | x | 2.8 | x
CCn1nccc1C(=O)Nc1nccs1 | x | 0.6 | -1.1 | -26.1 | -19.6 | 1.5 | 9.3 | 1.3
O=C(CN1C(=O)/C(=C2/SC(=S)N(CCS(=O)(=O)O)C2=O)c2ccccc21)Nc1cccc(Br)c1 | x | 2.5 | 7.7 | 13.0 | -20.9 | x | -11.3 | x
O=c1cc(CN2CCN(C/C=C/c3ccccc3)CC2)c2cc(O)ccc2o1 | i | 5.6 | -3.0 | -51.9 | 2.2 | -19.7 | x | 1.4
Cc1ccc(CN2C(=O)C[C@@H](NC(=O)OCC3c4ccccc4-c4ccccc43)C/C=C\C2c2ccc(C)cc2)cc1 (some centres not stated) | x | -8.0 | -12.6 | -17.4 | -7.9 | x | x | x
CN1CCN(/N=C/c2cccc(Cl)c2Cl)CC1 | i | 4.4 | 2.0 | -9.2 | x | 4.6 | x | -4.9
CCOC(=O)CSc1nc2ccccc2c(=O)n1CCCCCC(=O)NCc1ccco1 | i | -3.6 | -2.5 | -10.8 | 23.6 | 2.2 | 15.8 | -2.3
Cc1cc(/C=N/O)c(C)n1-c1cccc(Cl)c1 | i | -9.0 | -1.4 | 1.8 | x | -5.2 | 6.8 | -1.3
CC(C)Oc1ccccc1C1NC(=O)CCC1[N+](=O)[O-] (configuration not stated) | i | -0.5 | -0.2 | 5.9 | -10.8 | 3.2 | 6.1 | 3.3
O=C1C=C(NCc2ccc(Cl)cc2)CCC1 | i | 7.2 | 5.7 | -9.7 | x | -6.9 | 8.0 | -2.4
CC(CCc1ccccc1)NC(=O)COC(=O)c1cccs1 (configuration not stated) | i | 2.1 | 0.5 | 0.3 | -17.9 | -6.6 | -1.9 | -1.8
CCOC(=O)c1c(C)c(C(=O)N2CCN(C(=O)c3ccco3)CC2)c(C)n1C | i | 5.1 | 2.4 | x | -10.5 | -9.2 | -4.3 | -9.2
O=C(COc1cccc2c1CCNC2=O)Nc1ccc(F)cc1 | i | -3.1 | 0.1 | i | -19.8 | x | x | x
O=C(Cc1cccs1)Nc1nnc(-c2ccccc2)s1 | i | 2.8 | 1.3 | -40.9 | x | 10.1 | -15.7 | -3.4
COc1cccc(NC(=O)Nc2cccc(C(=O)O)c2)c1 | i | 1.3 | 6.5 | 71.2* | x | -2.5 | -9.4 | 6.4
CCN(CC)N=Nc1[nH]nc2nc(C)cc(C)c12 | i | 6.7 | 2.3 | -104.8 | -17.1 | 4.7 | -0.1 | 10.9
Cc1nc(=O)c(-c2ccccc2)c(C)n1-c1ccc(O)cc1 | i | -8.9 | -2.2 | -7.9 | -25.3 | -0.3 | x | 0.8
NS(=O)(=O)c1ccc(NC(=O)C2Cc3ccccc3C(=O)O2)cc1 (configuration not stated) | i | 3.0 | 7.0 | 4.3 | x | -7.6 | -4.2 | -11.3
Cc1[nH]c2ccccc2c1C(=O)CSC(=S)N1CCOCC1 | i | -3.2 | 0.8 | 34.2 | x | 7.0 | -8.7 | 5.6
O=C1C2CC=C(Cl)CC2C(=O)N1CCc1c[nH]c2ccccc12 (configuration not stated) | i | -1.8 | -1.2 | x | -9.4 | 4.5 | 19.1 | -1.1
Cc1ccc(F)c(S(=O)(=O)NC(=O)C2(C)CCN2C(=O)CC(c2ccccc2)c2ccccc2)c1 (configuration not stated) | x | 3.1 | 4.8 | 17.6 | -13.0 | x | x | x
CN(Cc1ccccc1)S(=O)(=O)c1ccc(Cl)nc1 | i | -1.0 | 3.4 | x | x | 1.8 | -8.3 | 4.4
Cc1ccc(-c2csc3ncnc(SCC(=O)Nc4nnc(C)s4)c23)cc1 | i | -1.4 | 2.6 | -3.1 | -17.8 | -5.9 | 18.0 | -9.1
CNc1c(NS(=O)(=O)c2cc(OC)ccc2OC)c(=O)oc2ccccc12 | x | 0.0 | 1.3 | -9.8 | 12.4 | 5.2 | 17.4 | 0.4
Cn1ccnc1SCC(=O)c1c[nH]c2ccccc12 | i | 0.0 | 1.0 | -28.8 | -25.3 | -6.2 | -23.0 | -4.1
CCN(C(=O)CSc1nnnn1C)c1c(N)n(Cc2ccccc2)c(=O)[nH]c1=O | i | 2.1 | 2.2 | -20.1 | 0.6 | 0.6 | -6.4 | -2.7
Cc1ccccc1N(CC(=O)NC(C)(C)C)C(=O)c1ccc(-c2ccccc2)[nH]1 | i | x | x | -0.6 | x | 4.8 | -4.8 | 4.5
COC(=O)c1nnn(CC(=O)NC(=O)Nc2ccc(F)cc2)c1C(=O)OC | i | 5.4 | 4.1 | -8.9 | x | -3.0 | -9.4 | 4.3
CCCCCC[N+](C)(C)CCSSCC[N+](C)(C)CCCCCC | i | -2.5 | -2.7 | -1.8 | -17.7 | 13.1 | -2.8 | 3.2
CCOC(=O)[C@H]1[C@H]2COc3ccccc3[C@@H]2N2C(=O)c3cc(F)ccc3NC(=O)[C@@]12C | x | 1.6 | 1.4 | -226.3 | -9.1 | x | 20.4 | x
Cc1ccc(N2CCCCn3c2nc2c3c(=O)n(CC(=O)O)c(=O)n2C)cc1 | i | 4.5 | 3.2 | x | x | 1.0 | x | 2.0
O=C(OCCN1CCCC1)C1(c2ccccc2)CCCC1 | i | -1.8 | 3.1 | x | -13.5&1.1 | -1.3 | x | 1.0
O=[N+]([O-])c1ccc(N=NNc2ccc([N+](=O)[O-])cc2)cc1 | x | -6.4 | -5.1 | -70.7 | -12.7 | x | x | x
O=C1CCCc2c1oc1c2CCCC1 | x | 1.2 | 5.6 | -13.7 | -23.9 | x | x | x
Cc1ccc(CNS(=O)(=O)CCNC(=O)c2ccc3c(c2)OCO3)cc1 | i | 6.5 | 6.8 | 5.3 | -2.5 | x | -13.7 | x
c1cnc2nc(-c3ccc4c(c3)OCO4)cn2c1 | i | 1.4 | -0.5 | -8.6 | -10.6 | 4.8 | 4.7 | -13.5
Cc1ccc(O)c(CNn2cnnc2)c1 | i | 1.3 | -0.6 | 3.8 | -4.8 | 5.8 | -1.4 | -3.6
CCOC(=O)Cc1c(C)nc2c(C#N)c[nH]n2c1=O | i | 8.0 | 3.9 | x | -14.0 | 11.6 | x | 13.9
Cn1cc(Br)c(-c2cccc(NC(=O)CCCC(=O)O)c2)n1 | i | 3.4 | 3.1 | -3.4 | x | 3.3 | -1.5 | -3.0
Cc1cc(C)nc(-n2nc(C)c(Br)c2Nc2ccc(Br)cc2)n1 | i | -3.5 | -6.8 | -26.4 | -29.5 | -3.2 | 1.0 | -8.9
Nc1cc(=O)[nH]c(=O)n1-c1ccc(Cl)cc1 | i | 5.0 | 5.4 | 16.6 | x | 2.4 | 2.0 | -8.0
COc1cc(/C=C2\CCC(C3CCCC3)C2=O)cc(OC)c1OC (configuration not stated) | i | 3.1 | -2.9 | 16.5 | -15.9 | 4.9 | -3.3 | 0.0
O=C1CCCc2c1cc(-c1ccccc1)n2-c1ccc(O)cc1 | i | 3.1 | -1.3 | 13.9 | x | 6.5 | 20.2 | 7.6
COc1ccccc1C(NC(=O)C1CCN(CCOc2ccc(Cl)cc2Cl)CC1)c1ccccn1 (configuration not stated) | x | 2.1 | -5.6 | -1.2 | 6.9 | x | x | x
O=C1c2ccccc2C2=Nc3ccccc3SC(c3ccccc3F)C12 (configuration not stated) | i | -2.0 | -13.9 | -42.8 | -5.6 | 3.8 | 68.5 | 2.3
CCCCOC(=O)Nc1nccs1 | i | 1.6 | -0.6 | -27.5 | -17.4 | 11.6 | -7.3 | -4.5
Cc1ccc(C)c(S(=O)(=O)NCc2ccc(C(=O)N3CCCCCC3)cc2)c1 | i | -1.9 | -4.5 | x | -8.8 | -1.7 | 12.3 | -7.0
CCCCn1c(SCC(=O)N2CCC(C)CC2)nc2cc(S(N)(=O)=O)ccc21 | i | -10.4 | -6.4 | x | 7.9 | -1.0 | -11.6 | -8.1
CCCCN(C(=O)c1cccc(-n2cnnn2)c1)c1c(N)n(CCCC)c(=O)[nH]c1=O | x | 0.7 | 5.2 | -20.9 | -4.7 | x | x | x
Fc1ccc2cc(-c3ccccc3F)ncc2c1 | x | 1.1 | 3.3 | -149.2 | -4.9 | x | 17.5 | x

By substructure, the entries above containing two or more sulfur atoms
SMILES | Rce1 inhib | MT1-MMP act inh | MT1-MMP act inh RFP | Env fusion inh | Yeast UUG start | PABP FP inh | CSC inhib | eIF4H inh | others
O=C(NCC1CCCN1S(=O)(=O)c1cccs1)C(=O)Nc1cccc(F)c1 (configuration not stated) | i | -0.8 | -0.3 | -8.7 | -15.9 | x | -3.7 | x
O=C(CN1C(=O)/C(=C2/SC(=S)N(CCS(=O)(=O)O)C2=O)c2ccccc21)Nc1cccc(Br)c1 | x | 2.5 | 7.7 | 13.0 | -20.9 | x | -11.3 | x
O=C(Cc1cccs1)Nc1nnc(-c2ccccc2)s1 | i | 2.8 | 1.3 | -40.9 | x | 10.1 | -15.7 | -3.4
Cc1[nH]c2ccccc2c1C(=O)CSC(=S)N1CCOCC1 | i | -3.2 | 0.8 | 34.2 | x | 7.0 | -8.7 | 5.6
Cc1ccc(-c2csc3ncnc(SCC(=O)Nc4nnc(C)s4)c23)cc1 | i | -1.4 | 2.6 | -3.1 | -17.8 | -5.9 | 18.0 | -9.1
CCCCCC[N+](C)(C)CCSSCC[N+](C)(C)CCCCCC | i | -2.5 | -2.7 | -1.8 | -17.7 | 13.1 | -2.8 | 3.2
CCCCn1c(SCC(=O)N2CCC(C)CC2)nc2cc(S(N)(=O)=O)ccc21 | i | -10.4 | -6.4 | x | 7.9 | -1.0 | -11.6 | -8.1

Not all compounds are listed, so the mix of outcomes need not match the whole.
